Bioassay records (PubChem)
STK33 inh: inhibitors of purified STK33 kinase, primary screen, biochemical, ADP-Glo luminescence, homogeneous, cell-free; Serine/threonine-protein kinase 33 (Homo sapiens), Q9BYT3; MBP phosphorylation; inhibition, % at 10 µM; actives 0.073% (n = 320,000); AID 2661, 2010;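 active means inhibition at or above 25%, using the most active replicate where run in duplicate; inactive means inhibition below 25%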
Target sequence (Q9BYT3 whole entry, looked up): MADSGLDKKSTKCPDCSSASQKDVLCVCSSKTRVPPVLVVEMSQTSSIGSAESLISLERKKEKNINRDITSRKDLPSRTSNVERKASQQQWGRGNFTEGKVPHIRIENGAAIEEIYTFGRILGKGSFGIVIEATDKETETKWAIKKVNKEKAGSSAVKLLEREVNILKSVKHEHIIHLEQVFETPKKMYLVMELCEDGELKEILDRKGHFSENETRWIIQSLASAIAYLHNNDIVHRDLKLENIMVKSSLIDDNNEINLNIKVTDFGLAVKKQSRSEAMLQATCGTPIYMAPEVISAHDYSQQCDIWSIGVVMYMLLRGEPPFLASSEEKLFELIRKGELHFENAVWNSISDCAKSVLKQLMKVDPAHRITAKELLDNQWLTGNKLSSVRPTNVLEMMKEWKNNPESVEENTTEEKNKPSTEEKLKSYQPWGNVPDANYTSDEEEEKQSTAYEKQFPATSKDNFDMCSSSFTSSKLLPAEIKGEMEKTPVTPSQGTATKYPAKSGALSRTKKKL
Starred values were filed as active, the others as inactive. Only part of the results is shown, and most or all hits are left out here.

mol	STK33 inh
CC1CC(C(F)(F)F)n2ncnc2N1 (stereo unspecified)	-0.9
O=C(NCCCN1CCOCC1)c1ccc(S(=O)(=O)Nc2ccccc2F)cc1	-0.8
O=C(Nc1cc([N+](=O)[O-])ccc1F)c1ccc2c(c1)OCCO2	-0.7
CCC1CCCCN1CCCNC(=O)c1cc2c(=O)oc3ccc(C)cc3c2s1 (stereo unspecified)	0.6
Cc1ccc(Cl)c(OCC(=O)NC2CCN(Cc3ccccc3)CC2)c1	-1.6
CS(=O)(=O)c1ccc2nc(NC(=O)c3cc4ccccc4o3)sc2c1	1.0
COc1cccc(OC)c1C(=O)Nc1ccccc1N1CCCCC1	0.5
CC/C(=N\NC(=O)c1cc(C)nc2ccccc12)c1ccc(C)s1	-2.4
CC(=O)N1CCN(c2ccc(NC(=S)NC(=O)COc3ccc(C(C)(C)C)cc3)cc2)CC1	-0.7
CCC(C)[C@@H](C(=O)N1CCNCC1)n1cc(CCCCN)nn1 (stereo partly specified)	-0.9
O=C(Nc1ccncc1)c1ccc2c(c1)S(=O)(=O)c1ccccc1C2=O	3.9
c1cn2c(NC3CCCCC3)c(-c3ccc(SC4CCCCC4)cc3)nc2cn1	0.0
CC1CCN(C(=O)CSCc2ccc(Cl)cc2)CC1	-1.1
COc1ccc(CCNC(=O)CSc2nc(C)cc(C)n2)cc1OC	-1.1
CCN(CC)S(=O)(=O)c1ccc(OC)c(NC(=O)c2cn(CC)c3nc(C)ccc3c2=O)c1	2.0
S=c1[nH]nc(-c2ccncc2)n1/N=C/c1cn(-c2ccccc2)nc1-c1ccccc1	-1.3
Cc1cccc(Cn2c(=O)n(-c3ccc(CC(=O)NCc4ccco4)cc3)c(=O)c3sccc32)c1	-0.2
CCc1ccc(NC(=S)N(CCCN2CCN(C)CC2)Cc2cccs2)cc1	-1.5
CCN(CC)C(=O)c1ccc2c(=O)n(Cc3cccc(Br)c3)c(=S)[nH]c2c1	0.9
C=CCn1c(NCCO)nc2sc3c(c2c1=O)CCC3	0.6
Nc1cc2c(cc1O)CCCC2	-0.9
Cc1ccc(CNC(=O)c2ccc3c(c2)S(=O)(=O)c2ccccc2C3=O)cc1	-2.4
O=C(Cc1nnc(NC(=O)Nc2ccccc2)s1)NCc1ccccc1	0.1
Cc1ccc(S(=O)(=O)N(c2nc(N(C)C)nc(N(C)C)n2)n2cnnc2)cc1	-0.5
Cc1ccc(NC(=O)CCc2c(C)nn(-c3ccc(N4CCOCC4)nn3)c2C)cc1	-0.4
CC1(C)CC(=O)C=C(NC2CC(C)(C)NC(C)(C)C2)C1	-0.9
COC(=O)c1cc2sc(Cl)cc2n1CC(=O)NCCC(C)C	-0.5
COc1ccc(C)cc1S(=O)(=O)Nc1ccncc1	0.0
CCSC1=C(C#N)C(c2ccc(Cl)cc2)C2=C(CCCC2=O)N1 (stereo unspecified)	-0.7
Cc1sc2ncnc(NCc3cccnc3)c2c1C	-0.6
COCCCNC(=O)c1ccccc1Oc1ccccc1	-1.1
COc1cccc(N2CCN(c3ccc4nnc(CCC(=O)Nc5ccc(C)cn5)n4n3)CC2)c1	-2.3
c1nc(NC2CCCCCC2)c2[nH]cnc2n1	-2.0
CCOC(=O)COc1ccc(C(=O)c2ccccc2)c(O)c1	-0.8
COc1ccc(CCNS(=O)(=O)c2ccccc2[N+](=O)[O-])cc1OC	-0.3
O=C(NCc1ccccc1Cl)c1ccccc1Oc1ccccc1	-1.1
Nc1cc(=O)[nH]c(SCC(=O)Nc2ccc(F)c(Cl)c2)n1	0.4
CC1=C(C(=O)OCCOc2ccccc2)C(c2ccc(C)o2)C2=C(CC(C)(C)CC2=O)N1 (stereo unspecified)	3.2
CC(O)C(NC=C1C(=O)OC(C)(C)OC1=O)C(=O)O (stereo unspecified)	-1.3
COc1ccc(S(=O)(=O)N(C)C)cc1NCC(=O)Nc1ccc(F)cc1F	-0.9
O=C(Oc1ccc[nH]c1=O)c1cc([N+](=O)[O-])cc([N+](=O)[O-])c1	-0.6
CCN(CC(=O)NCC1CCCO1)S(=O)(=O)c1ccc(Cl)cc1 (stereo unspecified)	-0.9
CCN1CCN(S(=O)(=O)c2cc(OCC(=O)NC3CCCCC3)c(C)cc2Cl)CC1	0.2
COc1ccc(NC(=S)NC(C)c2ccncc2)cc1OC (stereo unspecified)	0.2
O=[N+]([O-])c1ccc(C(O)CSC(=S)N2CCCCC2)cc1 (stereo unspecified)	0.0
Cc1ccc(Cn2c(=N)c(C(=O)NCC3CCCO3)cc3c(=O)n4cccc(C)c4nc32)cc1 (stereo unspecified)	-0.7
CCOC(=O)CNC(=O)Cn1c(C)cc2ccccc2c1=O	-3.9
COc1ccc(N2C3=C(C(=O)CC(C)(C)C3)C(c3cnn(C)c3)C3=C2CC(C)(C)CC3=O)cc1	0.4
COc1ccc(/C=N/NC(=O)Cc2cc(OC)c(OC)cc2[N+](=O)[O-])cc1	-1.0
COCCCNC(=O)CCc1nc(-c2ccccc2Cl)no1	-0.7
CCC(C)NC(=O)c1ccccc1NC(=O)c1ccc(CSc2ccccc2)cc1 (stereo unspecified)	1.0
CC(=O)Oc1ccc2nc(-c3ccco3)oc(=O)c2c1	-0.9
COc1ccc(S(=O)(=O)N2c3ccccc3OCC2c2ccccc2)cc1 (stereo unspecified)	-2.1
CCc1ccc(-c2cc3c(=O)n(CC(=O)NCc4ccccc4F)ncn3n2)cc1	-1.3
Cc1ccc(CN2C(=O)c3ccccc3Sc3ccc(C(=O)NCCCN4CCOCC4)cc32)cc1	-1.1
CC(=O)n1c2ccccc2c2nc3ccccc3nc21	-0.3
CN(C(=O)c1ccccc1C(=O)OCC(=O)c1ccc(Br)cc1)c1ccccc1	0.1
COc1ccc(S(=O)(=O)N(CC(=O)NCC2CCCO2)C2CCCCC2)cc1OC (stereo unspecified)	-1.5
CC(=O)C1=C(O)C(=O)N(c2nccs2)C1c1ccc(Br)cc1 (stereo unspecified)	-1.2
O=C(Nc1ccc(C(=O)O)cc1)/C(=C/c1ccc([N+](=O)[O-])cc1)NC(=O)c1ccccc1	-0.6

Further results
mol	STK33 inh
Cc1cccc(NC(=O)c2ccc(N3C(=O)C4CCCCC4C3=O)cc2)c1C (stereo unspecified)	-0.6
COc1ccc(-c2cc(C(=O)N/N=C/c3cccnc3)c3cc(C)cc(C)c3n2)cc1	-2.3
COc1cc(C(F)(F)F)c(C(=O)N(C)Cc2cccc(Cl)c2)cn1	-0.3
CCOC(=O)Cc1nnc(Nc2ccc(C)cc2)c2ccccc12	-0.9
O=c1c2ccccc2[nH]c(=S)n1Cc1cccnc1	-1.3
COC(=O)c1ccc(Sc2ccc(Cl)cc2)c(N)c1	-1.1
COc1ccc(C2CC(c3ccc(OC)cc3)n3nc(N)nc3N2)cc1 (stereo unspecified)	1.4
Nc1ccc(OC(=O)Nc2ccc(O)cc2)cc1	1.9
N/C(=N\OS(=O)(=O)c1ccc2ccccc2c1)c1cccnc1	-0.3
CCOC(=O)C(C)n1cnc2sc(C)c(C)c2c1=O (stereo unspecified)	-0.4
COc1cc2nc(SCC(=O)NCc3ccco3)n(Cc3ccc(Cl)cc3)c(=O)c2cc1OC	0.0
NNC(=O)C(Cc1c[nH]c2ccccc12)NC(=O)c1ccccc1 (stereo unspecified)	-0.1
CC(=O)Nc1cc(C(=O)N(C)Cc2ccccc2)ccc1S(=O)(=O)c1ccc(C)cc1	-1.1
O=C(O)C1CC=CCC1C(=O)N1CCN(c2nc(-c3ccccc3)c3ccccc3n2)CC1 (stereo unspecified)	-1.1
COCCC(=O)N1CCC(Oc2ccc(C(=O)NCc3nccn3C)cc2)CC1	-0.9
CCOc1ccccc1CNC(=O)C(C)n1nc(C)c2c(C)n(-c3ccccc3)nc2c1=O (stereo unspecified)	-0.5
CN(C)c1nc(NCc2ccccc2)nc(N/N=C/c2ccccc2F)n1	-0.8
Cc1nnc(SCC(=O)Nc2sccc2C#N)s1	0.1
Cc1cccn2cc(CCNS(=O)(=O)c3cccc([N+](=O)[O-])c3)nc12	-1.7
O=CN1CCN(C(C(=O)NC2CCCC2)c2cc3c(cc2[N+](=O)[O-])OCO3)CC1 (stereo unspecified)	-1.7
Cc1ccc(-c2cnc3c(Cl)c(C)nn3c2)cc1	0.0
Cc1csc(NC(=O)c2ccc3c(c2)OCO3)n1	2.7
COc1ccc(NC(=O)Nc2ccc([N+](=O)[O-])cc2)cn1	-1.4
Cc1cc(C)cc(NC(=O)CSc2nc3c(c(=O)n2C)SC(C)C3)c1 (stereo unspecified)	-0.4
CS(=O)(=O)N1CCN(S(=O)(=O)c2ccccc2[N+](=O)[O-])CC1	0.1
CN(C(=O)CSc1nnc(-c2ccccc2)o1)c1c(N)n(Cc2ccccc2)c(=O)[nH]c1=O	-0.5
CCc1nnc(NC(=O)c2ccc(S(=O)(=O)NC3CCCCC3)cc2)s1	1.1
CCCOP(=O)(c1ccc(N(C)C)cc1)C(O)c1c(Cl)cccc1Cl (stereo unspecified)	-1.0
CC(=O)CSc1ncnc2sc3c(c12)CCC3	-0.9
Cc1ccc(OCCn2c(CCNC(=O)C(C)C)nc3ccccc32)cc1	9.0
Cc1cccc(NC(=O)c2ccc(-n3cncn3)c([N+](=O)[O-])c2)c1	0.7
Cc1ccc2c3c1C1(C(=O)N3C(C)(C)CC2C)C(C#N)=C(N)Oc2cc(O)ccc21 (stereo unspecified)	-2.3
O=C(COC(=O)Cc1ccccc1F)Nc1cccc(F)c1	0.1
O=C(Nc1ccc(-c2cccc(F)c2)cc1)C1CCCN(Cc2ccccn2)C1 (stereo unspecified)	-2.2
O=C(Nc1ccccc1-c1ccccc1)NC1CC2CCCC(C1)N2Cc1ccc(F)cc1 (stereo unspecified)	4.7
O=C(Oc1cc(-c2ccccc2)no1)c1cccc(C(F)(F)F)c1	0.0
CC(O)[C@@]1(O)CC[C@H]2[C@@H]3CC[C@H]4C[C@@H](O)CC[C@]4(C)C3=CC[C@@]21C (stereo partly specified)	-0.8
Cc1nc2cc(NC(=O)CCS(=O)(=O)c3ccccc3)ccc2s1	-0.4
CCc1cc2c3c([nH]c2cc1S(=O)(=O)NCCCOC)CC(C)(C)CC3=O	0.2
O=c1[nH]c(SCCOc2cccc3ccccc23)nc2ccccc12	-1.6

Some of the entries above in a different format:
mol: CC(=O)n1c2ccccc2c2nc3ccccc3nc21
- STK33 inh: -0.3

mol: CN(C(=O)c1ccccc1C(=O)OCC(=O)c1ccc(Br)cc1)c1ccccc1
- STK33 inh: 0.1

mol: COc1ccc(S(=O)(=O)N(CC(=O)NCC2CCCO2)C2CCCCC2)cc1OC (stereo unspecified)
- STK33 inh: -1.5

mol: CC(=O)C1=C(O)C(=O)N(c2nccs2)C1c1ccc(Br)cc1 (stereo unspecified)
- STK33 inh: -1.2

A second format for 3 compounds above:
STK33 inh | SMILES
1.1 | CCc1nnc(NC(=O)c2ccc(S(=O)(=O)NC3CCCCC3)cc2)s1
-2.2 | O=C(Nc1ccc(-c2cccc(F)c2)cc1)C1CCCN(Cc2ccccn2)C1 (stereo unspecified)
-1.6 | O=c1[nH]c(SCCOc2cccc3ccccc23)nc2ccccc12

Following part:
mol	STK33 inh
O=C(COc1ccc2oc(-c3ccco3)cc(=O)c2c1)N1CCCCC1	1.0
Cc1c(-c2nc(N)nc(Nc3ccccc3F)n2)oc2ccccc12	-0.3
COc1ccc(CNC(=O)c2cc(=O)c3cc(C)ccc3o2)cc1	-1.1
CC(OC(=O)CCCN=C1NS(=O)(=O)c2ccccc21)C(=O)Nc1ccccc1F (stereo unspecified)	0.5
COc1cccc(-c2cc(C(=O)N3CC4(C)CC3CC(C)(C)C4)no2)c1 (stereo unspecified)	-0.9
OC(COc1ccc(CN2CCSCC2)cc1)CN1CCCCC1 (stereo unspecified)	-1.4
COc1ccc(N2C(=O)c3cc4ccccc4cc3C2=O)cc1	-1.2
CCO[C@@H]1OC(C(=O)N2CCOCC2)=C[C@H](C)[C@H]1CCCO	1.2
CCOc1ncccc1C(=O)NCc1ccc(OC)c(OC)c1	0.3
O=C(CCNC(=O)c1ccccc1Cl)NCCc1ccc(Cl)cc1	1.6
CCOC(=O)c1c(NC(=O)CN2CCOCC2)sc2c1CCCC2	0.0
Cc1cccc(-c2nc3sc(C)cc3c(=O)o2)c1	-0.9
COC(=O)C(NC(=O)c1ccccc1Cl)(Nc1ncc(S(=O)(=O)c2ccc([N+](=O)[O-])cc2)s1)C(F)(F)F (stereo unspecified)	-1.3
Cc1ccccc1Nc1nc(N)nc(COC(=O)c2ccc(S(=O)(=O)N(C)C)cc2)n1	-0.9
O=C(c1sc2ccccc2c1Cl)N1CCN(CCc2ccccn2)CC1	1.0
CC(C)(C)S(=O)(=O)/C(C#N)=C/c1sccc1C1OCCO1	0.4
COc1ccc(C([O-])=Nc2ccc[n+](-c3nc4ccccc4nc3NS(=O)(=O)c3ccccc3)c2)cc1	-2.5
C/C(=N\NC(=O)c1nn(C)cc1Br)c1ccncc1	1.0
O=S(=O)(CC(CN1CCCCC1)N1CCCCC1)c1ccccc1 (stereo unspecified)	-0.7
O=C(CS(=O)(=O)c1ccccc1)N1CCCCCC1	-1.2
CCC(C)[C@H](N)c1cn([C@@H](CCCCN)C(=O)N2CCNCC2)nn1 (stereo partly specified)	0.5
Cn1c(=O)c(=O)n(C)c2cc(S(=O)(=O)NCc3ccc(Cl)cc3)ccc21	-0.2
